AID504770: E. coli YBA685 growth inhibition, screen for V. cholerae RctB inhibitors. E. coli YBA685 rctB-dependent plasmid, OD600 growth, 3 h; hits give low values. z-score (concentration not given with the values). 130,000 compounds, 0.27% hits. AID 504770;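 active means z-score under -2 on both plates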;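 further: wells of about 30 µL received 100 nL stock; score is relative to mean and SD of the test wells; the first replicate is given; strong numbers were not always called active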
CapD inh: blocks the Bacillus anthracis CapD enzyme; 140,000 compounds, 0.23% hits; purified CapD enzyme, fluorescence intensity read-out; hits give low values; some hits fall short of the stated cut; AID 492967; z-score (test concentration not listed);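 active means z-score under -4 in either of two replicates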;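 further: stock transfer was 100 nL into about 40 µL; score is relative to mean and spread of the plate; one replicate is shown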
* = called active by the depositor; x = no result given.

#	Compound	AID504770	CapD inh
1	O=C(CSCCOc1ccccc1)N1CCOCC1	2	-1.3
2	CCn1c(C)cc2c(c1=O)C1(C(=O)Nc3ccccc31)C(C(=O)OC)=C(N)O2 (stereo not drawn)	-1	x
3	CN(C)c1ccc(/C=C(\C#N)C(N)=C(C#N)C#N)cc1	0.4	-0.45
4	COC(=O)c1cc(=O)n2c(-c3ccccc3)nnc2s1	-0.65	0.26
5	COc1ccc(C2(CNC(=O)/C=C/c3ccco3)CCCC2)cc1OC	x	-0.29
6	COc1cc2c(cc1OC)CN(C(=O)CSc1nc(C)cc(C)c1C#N)CC2	-0.7	x
7	CCOC(=O)c1c(-c2ccccc2)oc2ccc(O)c(CN3CCCC3)c12	-0.5	0.54
8	O=C(c1ccccc1)N1CCCc2ccccc21	1	0.26
9	N/C(=N/OC(=O)c1ccccc1F)c1nonc1N	0.6	-0.26
10	COc1ccc(C(=O)OC2CCN(c3ccc([N+](=O)[O-])cc3)CC2)cc1	x	-0.67

More structures
#	Compound	AID504770	CapD inh
11	Cc1cccc(C(=O)OCC(=O)NC2CCS(=O)(=O)C2)c1C (stereo not drawn)	0.15	x
12	COc1cccc(NC(=O)Cn2c(=O)oc3cc(S(=O)(=O)N4CCCCC4C)ccc32)c1 (stereo not drawn)	0.45	0.45
13	O=C(C1CC1)N(Cc1ccccn1)c1nc2ccccc2s1	0	x
14	CCOc1ccccc1NC(=O)CN1C(=O)c2cccc3cccc1c23	0.15	0.075
15	COc1ccccc1N1C(=O)S/C(=C\c2ccccc2)C1=O	-0.2	0.1
16	O=C(c1ccc(N2CCOCC2)cc1)c1cccs1	-0.3	x
17	c1coc(CN2CCNCC2)c1	-0.4	x
18	CC(C)Cn1c(SCC(=O)Nc2sccc2C#N)nnc1-c1ccco1	0.15	x
19	CCOC(=O)C(=NC1CCS(=O)(=O)C1)NNc1cc(C(F)(F)F)ccc1Cl (stereo not drawn)	-0.55	x
20	O=[N+]([O-])c1cc(Cl)ccc1Sc1ccccc1	x	-1.2

(further entries)
#	Compound	AID504770	CapD inh
21	COc1ccc(-c2noc(N(C)CC(=O)Nc3cccc(C)n3)n2)cc1	0.15	-1.5
22	CNC(=O)C12CC3CCC(CC(C3)C1)C2	-0.6	-0.18
23	Cc1c(NC(=O)CN(c2ccc(C(C)C)cc2)S(=O)(=O)c2ccccc2)c(=O)n(-c2ccccc2)n1C	x	-0.1
24	COc1ccc(-c2nnc(SCC(=O)c3ccccc3)n2C)cc1OC	-0.35	0.24
25	COc1ccc(Cl)cc1C(=O)Nc1nnc(SCC(=O)c2ccccc2)s1	-1.4	0.38
26	NC(Cc1ccccc1)C(O)(c1ccccc1)c1ccccc1 (stereo not drawn)	-0.05	x
27	CC(C)Cn1c(Sc2ncnc3sccc23)nc2ccccc2c1=O	-0.7	x
28	COc1ccc2[nH]c(C(=O)O)c(NC(C)=O)c2c1	x	43
29	COc1cc2c(cc1OC)C(C)N(C(=O)C1COc3ccccc3O1)CC2 (stereo not drawn)	x	-0.17
30	CCc1ccc2[nH]c(=O)c(C(c3nnnn3C(C)(C)C)N3CCN(C(=O)c4ccco4)CC3)cc2c1 (stereo not drawn)	-0.45	11

Carrying on.
#	Compound	AID504770	CapD inh
31	O=c1/c(=C/c2cccs2)sc2ncnn12	-0.1	-0.03
32	Cn1c(=NC(=O)c2ccc(S(=O)(=O)N3CCCCC3)cc2)sc2c3ccccc3ccc21	-0.55	-2
33	COCCOC(=O)C1=C(N)OC2=C(C(=O)CCC2)C1c1ccc(Cl)cc1 (stereo not drawn)	x	-0.51
34	COC(=O)c1ccc(Cn2cnc3c(cnn3C)c2=O)cc1	-0.8	x
35	CC1CCCN(CCCNC(=O)c2nc(-c3cccnc3)no2)C1 (stereo not drawn)	-0.75	-0.72
36	CSCCC(=O)Nc1nc2ccccc2[nH]1	0.45	x
37	COc1ccc2cccc3c2c1C=CC3=O	2.2	-2.3
38	CC1C/C(=N\NC(=S)NC(C)C)CC(C)(C)C1 (stereo not drawn)	-0.1	x
39	COCCn1c2c(c(=O)[nH]c1=O)C(c1ccccc1)C1=C(N2)c2ccccc2C1=O (stereo not drawn)	-1.2	-0.11
40	COc1ccc(C2CC(=O)c3cnc(NC(=O)c4ccccc4)nc3C2)cc1 (stereo not drawn)	2.5	-0.37

(listing goes on)
#	Compound	AID504770	CapD inh
41	CCc1cccc(CC)c1Nc1ncnc(N)n1	-0.6	-0.26
42	O=C(CSc1ncccn1)NCc1ccc(Cl)cc1	1.4	-0.34
43	COc1c(C)cc(Br)cc1C(=O)NC(=S)Nc1cccc(-c2nc3ncccc3o2)c1C	-0.35	0.3
44	CCSC1=C(C#N)C(=O)NC(C(C)C)S1 (stereo not drawn)	-0.5	0.34
45	O=C1CCCc2cc(S(=O)(=O)NCCCN3CCN(c4ccccc4)CC3)ccc2N1	0.45	0.64
46	Cc1cccc(N=Nc2cnc(-c3ccccn3)nc2-c2cccs2)c1	x	0.17
47	Cc1nc(C)n(C)c(=O)c1-c1ccccc1	0.35	-0.085
48	Cc1cc(C)nc(Nc2cc(Cl)cc(Cl)c2)n1	x	-0.48
49	O=C1CCN(C(=O)C(c2ccccc2)c2ccccc2)CCN1	x	-0.67
50	CCCCCOC(=O)CSc1nnc(-c2cc(OC)c(OC)c(OC)c2)o1	x	0.085

Continued:
#	Compound	AID504770	CapD inh
51	CCOC(=O)c1cnc(SCC(=O)N2CCCCC2)nc1N	-0.5	0.26
52	O=C1c2ccccc2C(=O)N1/N=C/c1ccc(-c2ccccc2Br)o1	-0.35	x
53	CCOC(=O)c1cc(-c2ccccc2)nn1-c1ccccc1	0.15	-0.42
54	O=C(CCn1c(=O)oc2ccccc21)N1CCCCC1	-0.45	0.16
55	CCN(CC)c1ccc(/C=C2\C(=O)NC(=S)N(c3ccc(F)cc3)C2=O)c(OC)c1	x	-0.025
56	Cc1ccc(C)c(Cn2cnc3c(cnn3CCO)c2=O)c1	1.1	x
57	COc1ccc(C(=O)n2cnc3ccccc32)cc1Br	1.9	0.22
58	COC(=O)c1c(C)n(CCOc2ccc(C(C)(C)c3ccccc3)cc2)c2ccc(O)cc12	x	-0.52
59	CC(C)(C)NCc1nc(-c2ccccc2)no1	-0.7	1.9
60	COC(=O)c1c(-c2ccccc2)csc1NC(=O)CS(=O)(=O)c1ccccc1	-0.75	-1.1

More records:
#	Compound	AID504770	CapD inh
61	O=C1Nc2ccccc2S/C1=C\C(=O)N1CCc2ccccc2C1	-0.35	-0.86
62	O=c1[nH]cnc2nc(-c3ccccc3)c(-c3ccccc3)nc12	-0.05	0.34
63	COc1ccc(CNS(=O)(=O)NCc2ccc(OC)c(OC)c2)cc1OC	x	-0.21
64	CC(=O)OC(OC(C)=O)c1ccc(S(C)(=O)=O)cc1	-0.2	0.14
65	N#Cc1ccc(/C=C/c2ccc(C#N)cc2)cc1	0.2	8.1
66	CCOC(=O)CSc1nnc(-c2cccc(S(=O)(=O)N3CCCCC3)c2)n1-c1ccccc1	-0.3	x
67	COC(=O)c1c(NC(=O)CSc2nnnn2-c2ccccc2)sc2c1CCC2	-0.1	x
68	CC(C)OC(=O)CC1C(=O)NCCN1C(=S)NC(=O)C1CCCCC1 (stereo not drawn)	-0.3	-0.3
69	S=c1[nH]c(=S)c2ccccc2[nH]1	-1.9	x
70	Cc1cc(C)n(C(=O)C2CC(=O)N(c3ccccc3)C2)n1 (stereo not drawn)	0.35	x

The list goes on.
#	Compound	AID504770	CapD inh
71	COCCN(C(=O)CCC(=O)N1CCOCC1)C1CCN(C)CC1	x	-0.67
72	Cn1c(=O)c2c(nc(NCCc3ccccc3)n2C)n(C)c1=O	-0.15	0.9
73	c1ccc(CN2CCNCC2)nc1	-0.65	x
74	O=C(NC1CCCCC1)c1cc2cccc3c2n(c1=O)CCC3	x	4.4
75	Cc1[nH]c(SCC(=O)N2CCN(CC3CCCO3)CC2)nc1Cc1ccccc1 (stereo not drawn)	-0.05	x
76	CN(C)c1ccc(P(C)(C)=O)cc1	0	x
77	O=S(=O)(c1cccc(C(F)(F)F)c1)N1CCC(c2c[nH]c3ccccc23)CC1	x	-0.62
78	COc1ccc(Cn2c(=O)c3[nH]cnc3n(-c3cc(S(C)=O)ccc3C)c2=O)cc1 (stereo not drawn)	0.2	1
79	COc1cc(C2Nc3ccc4ncccc4c3C3=C2C(=O)CCC3)cc(OC)c1O (stereo not drawn)	1.5	1.3
80	CC1CC(C)CN(S(=O)(=O)c2ccc3c(c2)oc(=O)n3CC(=O)NCCc2ccccc2)C1 (stereo not drawn)	-0.55	0.01

Compound profiles (already shown).
Shown for COc1ccc(C(=O)n2cnc3ccccc32)cc1Br : AID504770 = 1.9; CapD inh = 0.22
Shown for COC(=O)c1c(NC(=O)CSc2nnnn2-c2ccccc2)sc2c1CCC2 : AID504770 = -0.1; CapD inh = x
Shown for N#Cc1ccc(/C=C/c2ccc(C#N)cc2)cc1 : AID504770 = 0.2; CapD inh = 8.1

More structures
#	Compound	AID504770	CapD inh
81	CCOc1ccc(NC(=O)c2sc3nc(C)nc(N4CCN(c5ccccn5)CC4)c3c2C)cc1	x	-0.95
82	O=C(CCC(=O)N1CCc2ccccc2C1)N1CC=C(c2c[nH]c3ccccc23)CC1	1.5	9.7
83	Cc1ccc(/C=C/C(=O)Cc2ccccc2)cc1	0.7	-0.68
84	CCOC(=O)c1sc2ncnc(Nc3ccc(Br)cc3C)c2c1C	x	0.2
85	COc1cc(NC(=O)c2nn3c(C(F)(F)F)cc(-c4ccco4)nc3c2Cl)cc([N+](=O)[O-])c1	x	0.59
86	CCOc1ccc2oc(=O)cc(CN(Cc3ccco3)C3CCCC3)c2c1	-0.15	0.74
87	N#CC1(C#N)[C@H](c2ccccc2F)[C@@H](C(=O)c2ccccc2)N2c3ccccc3C=C[C@@H]21	x	6.1
88	COc1cnn(C(C)(C)C)c(=O)c1Cl	-0.5	0.36
89	O=C(Nc1ncc(Cc2ccccc2Cl)s1)c1ccco1	-0.3	0.51
90	CCN(CC)S(=O)(=O)c1ccc(/C=C/C(=O)OCC(=O)N2CCCCC2)cc1	-0.95	x

Other structures follow.
#	Compound	AID504770	CapD inh
91	Cc1ccnc(SCn2c(=S)sc3ccccc32)n1	-0.85	-0.63
92	Cc1c(C(=O)Nc2ccccn2)sc2ncnc(N3CCN(c4ccccc4F)CC3)c12	x	0.3
93	CC(C)Cc1nc2ccccc2n1CC(=O)N(c1ccccc1)C(C)C	-0.7	0.94
94	CCOC(=O)N(c1ccccc1)P1(=S)OCC(C)O1 (stereo not drawn)	x	0.22
95	CC1=CCC(C(=O)O)C(c2ccc(F)cc2)C1 (stereo not drawn)	x	-0.35
96	COc1ccc(-c2nc(-c3ccccc3O)[nH]c2-c2ccc(OC)cc2)cc1	x	37
97	COc1cccc(NC(=O)c2cc(-c3ccccc3)nc3ccccc23)c1	x	-0.35
98	CC(=O)N1N=C(c2cccc(Br)c2)OC1c1ccc(C)cc1 (stereo not drawn)	x	23
99	CCN1CCCC1CNC(=O)c1csc2c1CCCCC2 (stereo not drawn)	1.6	-0.35
100	O=C1CCc2cc(S(=O)(=O)NC(Cc3ccccc3)C(=O)N3CCN(c4ccccc4)CC3)ccc2N1 (stereo not drawn)	-0.85	-0.66

More records.
#	Compound	AID504770	CapD inh
101	CN(Cc1ccc(-c2ccc(Br)cc2)o1)C(=O)Cc1ccsc1	-0.05	x
102	NC(=O)N1CC(O)CC1C(=O)Nc1ccc(Cl)c(Cl)c1 (stereo not drawn)	-0.7	x
103	Cc1ccc2c(c1)c(=O)c1ccccc1n2CC(=O)N1CCN(c2ccc([N+](=O)[O-])cc2)CC1	x	0.85
104	COCCN1C(=O)C(C(=O)O)C2CC1(C)Oc1ccccc12 (stereo not drawn)	-0.15	x
105	COc1ccc(NC(=O)COc2ccccc2Cl)cc1NC(=O)c1ccco1	-0.7	10
106	Nc1ncnc2nc(SCc3ccc4nsnc4c3)[nH]c12	x	-0.03
107	c1ccc(CCc2nc(-c3ccccc3)no2)cc1	-0.6	0.14
108	CCc1ccc2nc(N(CCN(C)C)C(=O)c3ccc(N(C)C)cc3)sc2c1	-0.25	0.42
109	S=c1nn[nH]n1CCc1ccc(Cl)cc1	-0.05	0.65
110	CC(C1CC1)N(CC(F)(F)F)C(=O)CSc1nnc(-c2ccccc2Cl)o1 (stereo not drawn)	1.2	x

Two entries drawn at random from those above:
#	Compound	AID504770	CapD inh
103	Cc1ccc2c(c1)c(=O)c1ccccc1n2CC(=O)N1CCN(c2ccc([N+](=O)[O-])cc2)CC1	x	0.85
63	COc1ccc(CNS(=O)(=O)NCc2ccc(OC)c(OC)c2)cc1OC	x	-0.21

(listing goes on)
#	Compound	AID504770	CapD inh
111	O=c1c(Br)c(NCCCO)cnn1-c1ccccc1	-0.4	-0.39
112	CCNc1nc2[nH]c(=O)cc(O)c2s1	-0.8	-0.77
113	CC(=O)Oc1ccc(C2NC(C(=O)O)CS2)cc1 (stereo not drawn)	0	-0.64
114	O=c1oc2ccccc2cc1-c1ccc2c(c1)OCO2	-0.5	46
115	Cc1cc(C(=O)NC2Cc3ccccc3C2)c(C)o1	1.1	1.2
116	Cn1cc(C(=O)c2cc(F)ccc2O)cc(C#N)c1=O	-0.2	x

Molecules listed so far containing a tert-butyl group (three):
#	Compound	AID504770	CapD inh
30	CCc1ccc2[nH]c(=O)c(C(c3nnnn3C(C)(C)C)N3CCN(C(=O)c4ccco4)CC3)cc2c1 (stereo not drawn)	-0.45	11
59	CC(C)(C)NCc1nc(-c2ccccc2)no1	-0.7	1.9
88	COc1cnn(C(C)(C)C)c(=O)c1Cl	-0.5	0.36

Bioassay records from PubChem.
